Screening results from PubChem.
Calb FLC: C. albicans growth inhibition with fluconazole, primary screen, CaCi-2 strain, Alamar Blue fluorescence. C. albicans CaCi-2 (fluconazole-resistant clinical isolate) + fluconazole, 48 h. growth inhibition, % (test concentration not listed). 300,000 compounds, 0.57% hits. AID 1979, 2009;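 active = most replicates above 75%; inconclusive = exactly half above 75%; inactive = most below 75%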;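 note: all wells also contain fluconazole at 8 µg/ml as a sub-toxic cotreatment; 0% = median of DMSO wells and 100% = median of geldanamycin control wells; wells of about 8 µL received 7.5 nL stock; the first replicate is given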
AF4-AF9 inh: inhibitors of AF4 peptide binding to AF9, primary screen, biochemical, AlphaScreen, biotin-AF4 peptide, FLAG-AF9, single point. Protein AF-9 (Homo sapiens), P42568. inhibition, % at 10 µM. 350,000 compounds, 0.47% hits;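 active = every replicate reaching a set inhibition limit, whatever the replicate mean, cut at about 25% in these data; inconclusive = mean inhibition reaches that limit but some replicates miss it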;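 note: 0% = plate neutral control median and 100% = total signal loss; the record names both 10 and 1 µM as test concentration; the first replicate is given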
Target sequence (P42568 whole entry, looked up): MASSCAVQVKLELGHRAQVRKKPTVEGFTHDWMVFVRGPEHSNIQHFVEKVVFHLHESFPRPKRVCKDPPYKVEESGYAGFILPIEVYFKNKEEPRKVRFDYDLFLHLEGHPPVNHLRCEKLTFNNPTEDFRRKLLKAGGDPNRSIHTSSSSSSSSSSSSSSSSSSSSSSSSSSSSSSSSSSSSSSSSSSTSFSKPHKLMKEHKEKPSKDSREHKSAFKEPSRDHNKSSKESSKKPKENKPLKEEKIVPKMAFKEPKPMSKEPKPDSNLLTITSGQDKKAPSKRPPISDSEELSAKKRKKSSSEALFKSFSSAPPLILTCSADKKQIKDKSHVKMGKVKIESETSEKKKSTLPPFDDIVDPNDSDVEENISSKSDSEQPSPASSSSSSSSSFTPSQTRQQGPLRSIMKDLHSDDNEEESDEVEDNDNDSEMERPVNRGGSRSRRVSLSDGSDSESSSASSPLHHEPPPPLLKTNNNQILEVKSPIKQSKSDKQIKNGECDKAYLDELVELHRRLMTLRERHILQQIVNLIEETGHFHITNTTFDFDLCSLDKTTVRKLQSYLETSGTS
RanGTP-Impb inh: inhibitors of RanGTP-importin-beta interaction, primary screen, biochemical, FRET, CFP-Ran, YFP-importin-beta, homogeneous; 300,000 compounds, 1.1% hits; Ran GTPase (GTP-bound) - importin-beta complex; inhibition, % (no concentration beside the values); cell-free CFP-Ran/YFP-importin-beta FRET ratio; AID 2216, 2009;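 active = most replicates above 15%; inconclusive = exactly half above 15%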;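 note: 0% = DMSO wells and 100% = Ran loaded with GDP instead of GTP; wells of about 40 µL received 100 nL stock; the first replicate is given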
Beta apoptosis: inhibitors of cytokine-induced beta cell apoptosis, primary screen, luminescence. INS-1E cytokine-induced death, ATP luminescence, 48 h; percent of positive-control rescue, neutral wells zero. protection from apoptosis, % (concentration not given with the values). 300,000 compounds, 0.8% hits. AID 435005, 2010;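 active = all replicates at 75% or more, or half of them and the mean; inconclusive = half reach 75% but not the mean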;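 note: 0% = cytokine-treated negative control wells and 100% = positive control rescue; higher means more ATP so stronger rescue from cytokine killing; wells of about 40 µL received 100 nL stock; the first replicate is given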
FGF22 binding: binders of human FGF22 protein, primary screen, FGF22 synaptogenesis inhibitor project, biophysical, thermal shift, single point; recombinant FGF22 thermal shift, SYPRO orange fluorescence; percent of sucrose octasulfate shift, DMSO zero; 340,000 compounds, 1.5% hits; Fibroblast growth factor 22 (Homo sapiens), Q9HCT0; calls only at 9.99 µM;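 active = melting point raised past a set limit in the mean and every replicate; inconclusive = no clear call; three in four hits are not shown here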
Target sequence (Q9HCT0 whole entry, looked up): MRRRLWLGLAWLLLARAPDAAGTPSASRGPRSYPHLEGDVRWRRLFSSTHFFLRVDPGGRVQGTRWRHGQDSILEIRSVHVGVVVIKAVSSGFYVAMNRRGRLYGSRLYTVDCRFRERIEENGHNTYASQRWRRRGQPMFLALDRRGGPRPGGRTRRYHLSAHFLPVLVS
ALR inh: inhibitors of human ALR sulfhydryl oxidase, primary screen, biochemical, H2O2 detection, HRP-luminol luminescence, single point; FAD-linked sulfhydryl oxidase ALR (Homo sapiens), P55789; purified ALR, DTT oxidation; inhibition, % (concentration not given with the values); 290,000 compounds, 3.8% hits; AID 485317, 2010;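 active = mean and each replicate at 75% or more; inconclusive = only one of the two met; inactive = neither met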;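 note: stock transfer was 7.5 nL into about 7.5 µL; 0% = neutral wells and 100% = wells with inactivated enzyme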
Target sequence (P55789 whole entry, looked up): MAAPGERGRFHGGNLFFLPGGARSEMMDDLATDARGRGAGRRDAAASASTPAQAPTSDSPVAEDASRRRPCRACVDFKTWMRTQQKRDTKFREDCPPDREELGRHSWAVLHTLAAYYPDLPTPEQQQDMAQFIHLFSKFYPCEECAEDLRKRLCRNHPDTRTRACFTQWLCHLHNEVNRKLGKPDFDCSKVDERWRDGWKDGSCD
Ecoli rRNA inh: reduced GFP signal of wild-type E. coli, primary screen, bacterial rRNA inhibitor project, GFP/RFP fluorescence, OD600, single point. E. coli WT GFP vs humanized-ribosome RFP mutants, 24 h; hits give low values; DMSO median 0, no signal -100. GFP signal change (wild-type ribosome), % (concentration not given with the values). 350,000 compounds, 1.6% hits;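 active = significant combined selectivity score with lowered wild-type GFP, culture density cut under 30%, mutant RFP and density less affected; inactive = any of these conditions unmet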; note: one replicate is shown; some compounds called inactive have numbers as strong as hits
T cruzi inh: inhibitors of intracellular T. cruzi growth, primary screen, luminescence, NIH3T3 host cells; T. cruzi beta-gal in NIH3T3, 90 h; inhibition, % (no concentration beside the values); 300,000 compounds, 1.4% hits; AID 1885, 2009;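 active = mean inhibition across valid replicates above about 55%, limit read from the data; inconclusive = mean below that limit but half or more replicates reach it; inactive = mean below it, under half of replicates reach it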;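 note: signal also drops with host cell toxicity which is not excluded here; 0% = plate median of DMSO wells and 100% = zero luminescence signal; higher percent means less beta-gal luminescence so fewer parasites; stock transfer was 50 nL into about 50 µL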
Ecoli rRNA inh OD600: also measured in Ecoli rRNA inh; calls as there; OD600 change, %; measured here: OD600 growth;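 optical density of the mix in the first replicate; 0 = DMSO median and -100 = no signal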
Ecoli rRNA inh RFP: also measured in Ecoli rRNA inh; calls as there; RFP signal change, %; measured here: RFP humanized mutant strains;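 first replicate; 0 = DMSO median and -100 = no signal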
Starred values were filed as active, the others as inactive; i = inactive; ? = inconclusive; . = no result given; + = active, no number; & = joins results of further samples. The list is partial. The share of hits here may be higher or lower than overall.

SMILES | Calb FLC | AF4-AF9 inh | RanGTP-Impb inh | Beta apoptosis | FGF22 binding | ALR inh | Ecoli rRNA inh | Ecoli rRNA inh OD600 | Ecoli rRNA inh RFP | T cruzi inh
COc1ccc(OC)c(NC(=O)Cn2nc(C)c3ccccc3c2=O)c1 | 2 | 5.9 | 1.3 | -3 | i | -19 | 11 | 9 | 2.4 | -8
COc1ccc(Cl)cc1NC(=O)C(C)N1CCN(c2ccccn2)CC1 (stereo not given) | 7 | 2.2 | 4.0 | 3 | i | 0 | -19 | -27 | -5.0 | -19
CC(C)[C@H](NC(=O)c1ccc(Cl)c([N+](=O)[O-])c1)C(=O)O | 1 | 0.1 | -0.3 | 1 | i | -7 | 16 | 15 | 6.3 | -8
COc1cc2c(cc1OC)CN(C(=O)Cc1c(F)cccc1Cl)CC2 | 0 | -3.2 | 2.9 | 2 | i | 1 | -4 | -16 | -2.5 | 0
Cc1ccc(S(=O)(=O)NC2=C(N3CCN(c4ccccc4F)CC3)C(=O)c3ccccc3C2=O)cc1 | -2 | 35* | -1.6 | 4 | i | -7 | -18 | -30 | 3.4 | 27
COc1ccc(-c2c(-c3cc(OC)cc(OC)c3)n(C)c3ccc(-c4ccc(S(N)(=O)=O)cc4)cc23)cc1 | . | -14 | . | -3 | i | -4 | 6 | 12 | -0.4 | .
O=C(Nc1ccccc1C(=O)NC(Cc1ccccc1)C(=O)NC1CCCCCC1)c1ccccc1 (stereo not given) | -1 | . | 0.2 | 16 | . | 2 | . | . | . | 43
Cc1ccc(NC(=O)c2cncc(Br)c2)c([N+](=O)[O-])c1 | 5 | -1.0 | 1.7 | -5 | i | -2 | 7 | 8 | 2.8 | -2
CCOC(=O)N1CCN(C(=O)c2ccc(S(=O)(=O)NCc3ccco3)cc2)CC1 | -6 | 1.0 | -1.2 | -3 | i | 6 | 4 | 11 | 2.0 | -5
O=C(NCc1ccccc1)c1ccc2c(c1)OCCO2 | -12 | . | 2.9 | -4 | . | -11 | . | . | . | -10
Cc1ccc(CNC(=O)Nc2ccc(OC(F)(F)F)cc2)n1C | -13 | 2.7 | -0.8 | -4 | i | -22 | 3 | 7 | 3.8 | 5
NS(=O)(=O)c1cccc(NC(=O)COC(=O)CCSc2ccccc2)c1 | 19 | . | 6.6 | -7 | . | -5 | . | . | . | -9
CC(C(=O)Nc1ccccc1C(=O)N1CCOCC1)N(c1ccc(Cl)cc1)S(C)(=O)=O (stereo not given) | -7 | 1.0 | -5.3 | -16 | i | -12 | 11 | 4 | 0.8 | -11
Cc1csc(NC(=O)CSC2=NS(=O)(=O)c3cc(F)ccc3N2)n1 | 9 | -6.9 | 5.3 | 0 | i | 3 | 8 | 5 | 2.2 | -2
CCC1(c2ccccc2)NC(=S)N(c2cccc(C)c2C)N1 (stereo not given) | -57 | . | 8.5 | -3 | . | 28 | . | . | . | -25
CCN(C(=O)CN1CCN(S(=O)(=O)c2ccccc2C(F)(F)F)CC1)c1c(N)n(Cc2ccccc2)c(=O)[nH]c1=O | -5 | . | -1.0 | 6 | . | -4 | . | . | . | -10
COc1ccc(Cc2nc3ccc(C(=O)NCCc4ccncc4)cc3o2)cc1OC | -2 | 1.6 | 1.3 | . | i | -4 | -4 | 2 | -1.9 | -2
CC1CN(CC(=O)Nc2ccc(S(N)(=O)=O)cc2)CC(C)O1 (stereo not given) | -4 | . | -0.3 | . | . | -1 | 15 | 10 | 3.8 | -15
Cc1ccc(-c2c(NC(=O)c3ccco3)oc3ccccc3c2=O)cc1 | 56 | -0.7 | 4.9 | -2 | i | 38 | 1 | 3 | -1.0 | -2
Cc1ccc(N(CC(=O)NC(C)c2ccccc2)S(=O)(=O)c2cccs2)cc1 (stereo not given) | ? | . | -1.7 | -10 | . | . | . | . | . | 7

Compound profiles, from the list above.
O=C(NCc1ccccc1)c1ccc2c(c1)OCCO2 is listed with Calb FLC: -12; AF4-AF9 inh: .; RanGTP-Impb inh: 2.9; Beta apoptosis: -4; FGF22 binding: .; ALR inh: -11; Ecoli rRNA inh: .; Ecoli rRNA inh OD600: .; Ecoli rRNA inh RFP: .; T cruzi inh: -10
CCN(C(=O)CN1CCN(S(=O)(=O)c2ccccc2C(F)(F)F)CC1)c1c(N)n(Cc2ccccc2)c(=O)[nH]c1=O is listed with Calb FLC: -5; AF4-AF9 inh: .; RanGTP-Impb inh: -1.0; Beta apoptosis: 6; FGF22 binding: .; ALR inh: -4; Ecoli rRNA inh: .; Ecoli rRNA inh OD600: .; Ecoli rRNA inh RFP: .; T cruzi inh: -10

(cont.)
SMILES | Calb FLC | AF4-AF9 inh | RanGTP-Impb inh | Beta apoptosis | FGF22 binding | ALR inh | Ecoli rRNA inh | Ecoli rRNA inh OD600 | Ecoli rRNA inh RFP | T cruzi inh
COc1ccc(Cn2cnc3c(N)c(C)c(C)cc32)cc1 | 22 | 12 | -9.7 | -4 | . | 60 | -25 | -8 | 1.8 | 3
COc1ccc(C(=O)Nc2ccnn2C2CCN(C(=O)CCC(F)(F)F)CC2)cc1 | -15 | -1.6 | 4.3 | -4 | i | -5 | 0 | 4 | -2.6 | -7
O=C(CSc1nnc(NC(=O)C2CC2)s1)NCc1ccccc1 | -1 | -1.7 | -2.2 | . | i | -10 | 11 | 10 | 1.2 | -3
O=C(COC(=O)c1cc(S(=O)(=O)N2CCOCC2)ccc1O)Nc1cc(S(=O)(=O)N2CCCC2)ccc1Cl | -3 | -13 | 0.0 | -4 | i | -3 | 7 | 8 | 13 | -4
COc1ccc(CCC(=O)Nc2cccc(S(=O)(=O)N3CCCCCC3)c2)cc1OC | . | 2.2 | . | -3 | i | 1 | -2 | -16 | 5.2 | .
Cc1cccc(NC(=O)N2CCN(Cc3ccc4c(c3)OCO4)CC2)c1C | -24 | -0.5 | . | 0 | i | -8 | 9 | -2 | 1.0 | 11
O=C(NCc1ccccc1)C1=C[C@H](c2csc3ccccc23)C[C@H](OCCCCO)O1 | -8 | -0.6&1.8 | -2.5 | 75* | i | -12 | -21 | 0 | 26 | 27
CCOC(=O)c1ccc(N=c2scc(C)n2CC)cc1 | 46 | 26* | 2.8 | -2 | i | 38 | -7 | 38 | -0.9 | -3
COc1ccc(C(C)(C)C)cc1NC(=O)CCCN1C(=O)NC(C)(C)C1=O | . | -8.1 | . | 1 | i | 3 | 6 | 8 | 0.3 | .
Cc1ccc(S(=O)(=O)/N=C(/NNC(=O)c2cccc(Cl)c2)c2ccccc2)cc1 | 3 | -3.1 | -4.3 | 2 | i | 26 | 5 | -1 | 4.4 | 1
CC(NC(=O)c1ccc(Br)cc1)c1ccc2c(c1)CCCC2 (stereo not given) | 1 | . | -0.9 | -6 | . | . | . | . | . | 26
O=C(COc1ccc2c3c(c(=O)oc2c1)CCC3)N1CCCCC1 | 4 | -9.8 | 4.1 | 0 | i | -1 | -9 | -11 | -0.6 | 7
Cc1cccc2nc(CSCc3ccco3)cn12 | -5 | . | 0.9 | -1 | . | 98* | . | . | . | -11
CCc1ccc(NC(=S)NNC(=O)c2ccccc2OC(F)F)cc1 | 14 | . | 0.2 | . | . | 24 | . | . | . | -14
O=S(=O)(NCc1ccc(F)cc1)c1cccc(S(=O)(=O)N2CCOCC2)c1 | -4 | . | -1.7 | 0 | . | -1 | . | . | . | 14
O=C(NCCCNC(=O)c1ccccn1)c1ccc(Br)cc1 | -2 | -10 | -3.1 | 1 | i | 2 | -2 | 9 | -1.3 | 2
COc1cc(C)c(C(=O)Oc2cc(C)c(C(=O)O)c(O)c2C)c(O)c1C | 11 | 0.2 | 1.7 | 14 | + | 97* | -33 | -16 | -22 | -1
Cc1cc(Cl)ccc1NNC(=O)CCc1ccccc1 | -2 | 3.0 | 2.1 | 1 | i | 4 | -29* | -4.2* | -0.3* | 25
CCOC(=O)C1=C(C)OC(N)=C(C(=O)OCC)C1c1cccnc1 (stereo not given) | -33 | . | 6.1 | 2 | . | -6 | . | . | . | 10
CCCOc1cc(CN2CCCCC2)cc(C(C)=O)c1 | 6 | . | 0.5 | -8 | . | -13 | . | . | . | 5
Clc1ccc(-n2cccc2CN2CCc3c([nH]c4ccccc34)C2c2ccccn2)nc1 (stereo not given) | -2 | 7.0 | 0.4 | -8 | i | -5 | -24 | -17 | 5.1 | 48
COc1ccc(OC)c(S(=O)(=O)N2CCC(C(=O)NC3CC3)CC2)c1 | -10 | -2.0 | 4.8 | -2 | i | 58 | -5 | 1 | -3.7 | -12
Cc1cc(C)n(-c2ccc(C(=O)N3CCN(S(=O)(=O)c4ccc(C(C)C)cc4)CC3)cc2)n1 | . | 1.7 | . | -4 | i | -6 | 2 | -9 | 14 | .
O=C(c1ccc(F)cc1)N1CCN(c2cc(N3CCCCC3)c(F)cc2[N+](=O)[O-])CC1 | -6 | . | -7.3 | 13 | . | -3 | . | . | . | 23
CC1(c2ccc(OC(F)F)cc2)NC(=O)N(CC(=O)Nc2ccc(N3CCCCC3)cc2)C1=O (stereo not given) | 1 | 17 | 0.9 | 5 | i | 8 | 9 | 16 | 2.4 | 29
Cc1cccc(NC(=O)CCNC(=O)c2ccco2)c1 | 2 | -2.3 | -3.4 | -3 | i | -14 | -3 | -1 | -2.2 | -1
COc1ccc(NC(=O)C2CCN(S(=O)(=O)c3cccc4cccnc34)CC2)cc1OC | -5 | 5.5 | 2.1 | -2 | i | -231 | 6 | 14 | 0.5 | -5
CCOC(=O)C1=C(C)NC(C)=C(C(=O)OCC)C1c1sccc1C | 8 | . | -0.9 | -3 | . | -10 | . | . | . | 27
O=C(NCCCN1CCCC1=O)Nc1ccccc1F | 10 | -4.2 | -1.2 | 5 | i | -4 | 9 | 3 | 2.3 | -11
Cc1nc2ccc(NS(=O)(=O)c3ccccc3F)cc2s1 | . | -2.7 | . | 1 | i | -3 | 2 | -12 | 1.2 | .
COC(=O)Nc1ccc(S(=O)(=O)N2CCCC(C(=O)NC3CCS(=O)(=O)C3)C2)cc1 (stereo not given) | 2 | . | 3.0 | 4 | . | . | . | . | . | -13
O=C(NCCCc1ccccc1)c1ccccc1 | 18 | . | ? | . | . | -2 | . | . | . | 8
Cc1ccc(OCCNC(=O)c2ccc(COc3ccccc3)o2)cc1 | -6 | -4.2 | 1.1 | -13 | i | 12 | -20 | -42 | -4.9 | -13
